Assay outcomes from PubChem BioAssay.
Calb FLC – C. albicans growth modulation with fluconazole; C. albicans CaCi-2 (fluconazole-resistant clinical isolate) + fluconazole, Alamar Blue growth, 48 h; growth inhibition, % (test concentration not listed); 0.57% of 300,000 active; AID 1979;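 active = most replicates above 75%; inconclusive = exactly half above 75%; inactive = most below 75%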;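 also: all wells also contain fluconazole at 8 µg/ml as a sub-toxic cotreatment; 0% = median of DMSO wells and 100% = median of geldanamycin control wells; wells of about 8 µL received 7.5 nL stock; the first replicate is given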
Vif TR-FRET – HIV-1 Vif–A3G interaction blockers – biochemical, TR-FRET, GST-Vif 1-94, biotin-A3G peptide, dose response retest, primary screen (AID 1117319); TR-FRET GST-Vif / biotin-A3G peptide binding; higher % means a stronger effect; test concentration not given here; strong numbers were not always called active; 0.57% of 260,000 active; inhibition, %, or IC50 in µM where a hit was titrated;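 active = above the screen mean plus three standard deviations and confirmed in dose response; inconclusive = results disagree or hit not tested in dose response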;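 also: Vif residues 1-94 fused to GST binding biotinylated APOBEC3G peptide 110-148; 0% = full assay without inhibitor and 100% = GST in place of GST-Vif; retest series ran down from 100 µM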
Beta2AR agonist – agonists of human beta-2 adrenergic receptor inducing internalization; P07550; Am2.2-beta2AR cells, FAP receptor internalization, flow cytometry; reference of the scale not given here; 0.43% of 340,000 active; response, % (no concentration beside the values);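 active = response above a set limit, near 3 SD of response in nonfluorescent compounds, cut at about 42% in these data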;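 also: stock transfer was 100 nL into about 11 µL; a reference agonist was the positive control; negative values mostly stem from fluorescent compounds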
Target sequence (P07550 whole entry, looked up): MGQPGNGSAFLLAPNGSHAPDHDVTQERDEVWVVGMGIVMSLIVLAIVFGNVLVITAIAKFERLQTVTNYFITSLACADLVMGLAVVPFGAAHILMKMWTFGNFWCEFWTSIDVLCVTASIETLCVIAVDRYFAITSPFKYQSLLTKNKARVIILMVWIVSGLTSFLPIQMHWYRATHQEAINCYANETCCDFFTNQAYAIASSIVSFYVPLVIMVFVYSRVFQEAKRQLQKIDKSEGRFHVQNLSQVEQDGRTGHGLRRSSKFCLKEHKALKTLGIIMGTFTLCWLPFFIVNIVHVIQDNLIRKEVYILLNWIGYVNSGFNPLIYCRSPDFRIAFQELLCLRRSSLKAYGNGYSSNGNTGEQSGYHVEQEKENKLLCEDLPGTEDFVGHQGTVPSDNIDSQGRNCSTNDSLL
HNF4A DNA FP – change in binding of human HNF4 alpha to DNA; P41235; HNF4a-FITC DNA binding, fluorescence polarization, 1 h; activity change, % at 10 µM; 0.3% of 360,000 active; in the data active = activity change above about 30%, passing the limit was not always enough;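 also: controls were the assay level and a saturating level of protein; the project sought stronger binding though the title names inhibitors; some compounds called inactive have numbers as strong as hits; positive values seem to mean higher polarization but the record does not say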
RanGTP-Impb inh – disruptors of Ran-importin-beta complex formation – biochemical, FRET, CFP-Ran, YFP-importin-beta, homogeneous, primary screen. cell-free CFP-Ran/YFP-importin-beta FRET ratio. inhibition, % (concentration not given with the values). 1.1% of 300,000 active;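 active = most replicates above 15%; inconclusive = exactly half above 15%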;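 also: 0% = DMSO wells and 100% = Ran loaded with GDP instead of GTP; wells of about 40 µL received 100 nL stock; the first replicate is given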
ALR inh – inhibitors of human sulfhydryl oxidase ALR; inhibition, % (test concentration not listed); 3.8% of 290,000 active; purified ALR, DTT oxidation, H2O2 HRP-luminol luminescence;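 active = mean and each replicate at 75% or more; inconclusive = only one of the two met; inactive = neither met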;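 also: stock transfer was 7.5 nL into about 7.5 µL; 0% = neutral wells and 100% = wells with inactivated enzyme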
Target sequence (P55789 whole entry, looked up): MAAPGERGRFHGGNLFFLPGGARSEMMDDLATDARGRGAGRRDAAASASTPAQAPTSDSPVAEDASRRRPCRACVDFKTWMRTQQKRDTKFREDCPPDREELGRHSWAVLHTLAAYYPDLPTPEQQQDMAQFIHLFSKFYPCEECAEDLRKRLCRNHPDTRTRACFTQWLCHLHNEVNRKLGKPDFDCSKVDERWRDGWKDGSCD
LANA-H2A inh – blocks KSHV LANA binding to histone H2A/H2B | cell-free LANA-H2A/H2B peptide, fluorescence polarization | inhibition, % (concentration not given with the values) | 0.6% of 320,000 active; in the data active = inhibition mostly above about 10%, no sharp cut-off; inactive = mostly below about 6.7%;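 also: stock transfer was 7.5 nL into about 10 µL; 0% = median of vehicle wells and 100% = median of positive control wells; one replicate is shown; the record names a cut of 25% in any replicate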
* = called active by the depositor; u = inconclusive; x = not tested or not shown. An unsorted share of the library; overall some 6.3% were active at least once.

Assay codes – A = Calb FLC; B = Vif TR-FRET; C = Beta2AR agonist; D = HNF4A DNA FP; E = RanGTP-Impb inh; F = ALR inh; G = LANA-H2A inh
> CCC(CC)C(=O)Nc1cc(C(=O)OC)ccc1C(=O)OC
  A: -22 | B: x | C: 2 | D: 1.7 | E: -2.8 | F: 1 | G: -0.6

> Cc1cc(C)c(S(=O)(=O)N2CCN(C(=O)C(C)Cn3cncn3)CC2)c(C)c1 (stereo not given)
  A: 3 | B: x | C: -5 | D: -2.4 | E: -3.9 | F: -5 | G: -2.1

> COc1ccc(/C=N/n2c(=O)[nH]c3c([nH]c4ccc(F)cc43)c2=O)cc1CN1CCCCC1
  A: -4 | B: -7% | C: 0 | D: -4.5 | E: 4.4 | F: 8 | G: 1.9

> CCOc1ccc(Nc2nc3ccccc3n3cnnc23)cc1
  A: 28 | B: 2% | C: -7 | D: 0.5 | E: 2.9 | F: x | G: x

> CCOC(=O)CSc1nc2sc3c(c2c(=O)[nH]1)CC(C)(C)OC3
  A: 1 | B: -1% | C: 3 | D: 1.5 | E: u | F: x | G: 1.6

> COc1cccc(C(=O)Nc2nc(-c3ccncc3)cs2)c1
  A: -19 | B: -9% | C: 7 | D: 2.1 | E: -0.2 | F: -6 | G: 6.5

> Cc1nc(CC(=O)N2CCN(c3cccc(C)c3C)CC2)cs1
  A: 11 | B: 10% | C: -4 | D: -3.8 | E: 0.1 | F: -3 | G: -4.9

> CCCOc1ccccc1C1CC(=O)NC2=C1C(=O)CCC2 (stereo not given)
  A: 8 | B: 5% | C: -4 | D: 0.3 | E: 1.1 | F: x | G: x

> COc1ccc(C(=O)COC(=O)/C=C/c2ccco2)cc1F
  A: x | B: 3% | C: -1 | D: -2.3 | E: x | F: 1 | G: 1.7

> Cc1ccc(/C=N/N(C)C2=NS(=O)(=O)c3ccccc32)cc1
  A: 17 | B: x | C: -8 | D: -3.3 | E: -0.4 | F: x | G: 9.2

> CCSc1nc2ccccc2c(=O)n1C1CCOC(C)(C)C1 (stereo not given)
  A: -3 | B: 2% | C: -13 | D: 0.6 | E: 9.5 | F: 1 | G: 0.3

> CC1CCCN(C(=O)CSc2nnc3ccccn23)C1 (stereo not given)
  A: x | B: 0% | C: 1 | D: -1.9 | E: x | F: -4 | G: -7.1

> COc1ccc(CNC(=O)c2cnn3c(C(F)F)cc(C)nc23)cc1
  A: -6 | B: -3% | C: 0 | D: 0.5 | E: -1.7 | F: 4 | G: 7.4

> CCN1C(=C(C#N)C#N)C=Cc2cc(C)ccc21
  A: 31 | B: -5% | C: -2 | D: 31 | E: 52* | F: 3 | G: 8.5

> COc1cc(C(=O)OCc2ccccc2C#N)ccc1OCC(=O)N1CCOCC1
  A: x | B: x | C: -1 | D: -3.3 | E: x | F: -2 | G: -2.3

> Cc1ccc(OCC(=O)c2cc(C)n(C)c2C)c([N+](=O)[O-])n1
  A: -1 | B: u | C: -14 | D: -2.4 | E: 2.3 | F: 1 | G: -7.5

> Cc1ccccc1C(=O)N1N=C(c2cccc(NS(C)(=O)=O)c2)CC1c1cccs1 (stereo not given)
  A: 8 | B: 3% | C: 9 | D: -3.1 | E: 2.2 | F: 2 | G: -2.2

> COc1ccc(C(C(=O)NC(C)(C)C)N(Cc2ccco2)C(=O)CCC(=O)Nc2ccccn2)cc1 (stereo not given)
  A: -4 | B: 2% | C: -5 | D: 0.7 | E: 2.4 | F: -4 | G: 0.8

> CC1=C(C(=O)N2CCOCC2)C(c2ccccc2F)C2=C(CCCC2=O)N1 (stereo not given)
  A: -3 | B: 24% | C: -4 | D: -0.5 | E: -5.4 | F: -18 | G: 2.3

> COc1ccccc1NC(=O)NNC(=O)c1ccc2ccccc2c1O
  A: 3 | B: 1% | C: -4 | D: -1.3 | E: -1.9 | F: 57 | G: -4.1

> CC(C)=CCN1CCN(Cc2cnc(C)s2)CC1CCO (stereo not given)
  A: 0 | B: 14% | C: -3 | D: 0.5 | E: 6.3 | F: 2 | G: -5.3

> Cc1c(C2Nc3ccccc3NC3=C2C(=O)CC(C)(C)C3)cnn1C (stereo not given)
  A: -2 | B: 23% | C: 5 | D: -0.7 | E: -14 | F: 68 | G: -0.8

> O=C(c1cc(-c2ccc(Br)cc2)on1)N1CCCC1
  A: 6 | B: x | C: -14 | D: -2.5 | E: 2.0 | F: -3 | G: 3.8

> C=CCn1c(SCC(=O)NC2(C#N)CCCCC2)nnc1-c1ccncc1
  A: -1 | B: 1% | C: 1 | D: 0.7 | E: -2.3 | F: x | G: 4.1

> CCOc1ccc(S(=O)(=O)N(C)c2ccc(OCC(=O)NCCc3ccc(OC)cc3)cc2)cc1
  A: -9 | B: 5% | C: 4 | D: 0.9 | E: 7.3 | F: -3 | G: -4.4

> COc1ccccc1OCCCCOc1ccccc1F
  A: 3 | B: -1% | C: 7 | D: -0.1 | E: 5.7 | F: -2 | G: -8.6

> O=C(NCC1OCCc2ccccc21)c1ccc(NC(=O)c2ccc(Cl)cc2)cc1 (stereo not given)
  A: 16 | B: x | C: -2 | D: 1.2 | E: 6.2 | F: 7 | G: 2.9

> CC(C)Cc1cc(C(=O)N2CCCC(CCC(=O)N(C)CCc3ccccn3)C2)no1 (stereo not given)
  A: -11 | B: 0% | C: -10 | D: 5.2 | E: 4.0 | F: -2 | G: -3.1

> COc1ccc(NC(=O)C2=Cc3ccccc3OC2)cc1
  A: 28 | B: 4% | C: -1 | D: 3.5 | E: 0.4 | F: 1 | G: 1.6

> CCOC(=O)CN(C)C(=O)CCc1nnc(-c2ccc(-c3ccccc3)cc2)o1
  A: -8 | B: x | C: 15 | D: 2.5 | E: u | F: x | G: -2.0

> O=C(CSc1nc2ccccc2c(=O)n1-c1ccc(OC(F)F)cc1)NCc1cccs1
  A: 1 | B: x | C: -8 | D: 0.4 | E: 3.1 | F: -14 | G: 4.2

> CCCCC(NS(=O)(=O)c1ccc(OC)cc1)C(=O)O (stereo not given)
  A: -5 | B: 28% | C: -1 | D: 0.7 | E: -2.2 | F: -6 | G: 4.1

> Cc1cc(C)cc(NC(=O)CCc2nc3ccccc3[nH]2)c1
  A: -19 | B: 1% | C: 13 | D: 0.8 | E: -4.9 | F: -1 | G: 3.0

> O=C(Oc1c(Cl)cc(Cl)c2cccnc12)c1cccs1
  A: 108* | B: 18% | C: 15 | D: -3.2 | E: -0.9 | F: -17 | G: 0.9

> Cc1cc(NC(=O)C2CCCN(S(=O)(=O)c3c(C)noc3C)C2)no1 (stereo not given)
  A: -2 | B: -1% | C: 1 | D: 2.5 | E: 1.7 | F: -1 | G: 3.6

> N#Cc1cnn2c(-c3ccccc3)ccnc12
  A: 7 | B: 2% | C: -4 | D: -1.2 | E: -0.5 | F: -5 | G: -6.1

Filtered by structure: the entries above with a carbonyl joined to an NH by a bond outside any ring (12)
Assay codes – A = Calb FLC; B = Vif TR-FRET; C = Beta2AR agonist; D = HNF4A DNA FP; E = RanGTP-Impb inh; F = ALR inh; G = LANA-H2A inh
> CCC(CC)C(=O)Nc1cc(C(=O)OC)ccc1C(=O)OC
  A: -22 | B: x | C: 2 | D: 1.7 | E: -2.8 | F: 1 | G: -0.6

> COc1cccc(C(=O)Nc2nc(-c3ccncc3)cs2)c1
  A: -19 | B: -9% | C: 7 | D: 2.1 | E: -0.2 | F: -6 | G: 6.5

> COc1ccc(CNC(=O)c2cnn3c(C(F)F)cc(C)nc23)cc1
  A: -6 | B: -3% | C: 0 | D: 0.5 | E: -1.7 | F: 4 | G: 7.4

> COc1ccc(C(C(=O)NC(C)(C)C)N(Cc2ccco2)C(=O)CCC(=O)Nc2ccccn2)cc1 (stereo not given)
  A: -4 | B: 2% | C: -5 | D: 0.7 | E: 2.4 | F: -4 | G: 0.8

> COc1ccccc1NC(=O)NNC(=O)c1ccc2ccccc2c1O
  A: 3 | B: 1% | C: -4 | D: -1.3 | E: -1.9 | F: 57 | G: -4.1

> C=CCn1c(SCC(=O)NC2(C#N)CCCCC2)nnc1-c1ccncc1
  A: -1 | B: 1% | C: 1 | D: 0.7 | E: -2.3 | F: x | G: 4.1

> CCOc1ccc(S(=O)(=O)N(C)c2ccc(OCC(=O)NCCc3ccc(OC)cc3)cc2)cc1
  A: -9 | B: 5% | C: 4 | D: 0.9 | E: 7.3 | F: -3 | G: -4.4

> O=C(NCC1OCCc2ccccc21)c1ccc(NC(=O)c2ccc(Cl)cc2)cc1 (stereo not given)
  A: 16 | B: x | C: -2 | D: 1.2 | E: 6.2 | F: 7 | G: 2.9

> COc1ccc(NC(=O)C2=Cc3ccccc3OC2)cc1
  A: 28 | B: 4% | C: -1 | D: 3.5 | E: 0.4 | F: 1 | G: 1.6

> O=C(CSc1nc2ccccc2c(=O)n1-c1ccc(OC(F)F)cc1)NCc1cccs1
  A: 1 | B: x | C: -8 | D: 0.4 | E: 3.1 | F: -14 | G: 4.2

> Cc1cc(C)cc(NC(=O)CCc2nc3ccccc3[nH]2)c1
  A: -19 | B: 1% | C: 13 | D: 0.8 | E: -4.9 | F: -1 | G: 3.0

> Cc1cc(NC(=O)C2CCCN(S(=O)(=O)c3c(C)noc3C)C2)no1 (stereo not given)
  A: -2 | B: -1% | C: 1 | D: 2.5 | E: 1.7 | F: -1 | G: 3.6
